RE007 growth inh: qHTS Assay for Inhibitors of the HIV-1 protein Vpr | S. pombe RE007 Vpr strain, BacTiter-Glo ATP luminescence, 24 h; control for the full effect not named in the record | Potency, µM (highest dose often 92.2 µM), for inactives: at the top dose activity change, negative = less growth | 0.21% of 360,000 active | AID 651644, 2012; active = well fitted falling curve with a large enough effect; inconclusive = small, poorly fitted or top-dose-only effect; inactive = no such curve, though single readings can be large or run the other way;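 also: % is scaled to controls: 0 for no effect and ±100 for the full control effect; nearly all actives have a fitted effect of over 50% in size; the assay follows cell death caused by Vpr and the record does not say whether a fall means rescue or toxicity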
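Fission yeast RE007 carrying one integrated HIV-1 vpr copy, seeded at OD 0.01 in PMG+AL medium with 23 nL pinned compound. Grown 24 h at 30 degrees; viability read by BacTiter-Glo luminescence after 5 min.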
SARS PLP yeast: qHTS of Yeast-based Assay for SARS-CoV PLP. S. cerevisiae expressing SARS-CoV PLpro, growth rescue; control for the full effect not named in the record. Potency, µM (highest dose often 32.9 µM), inactives show at the top dose activity, positive = growth rescue. 0.19% of 330,000 active; active means well fitted rising curve with a large enough effect; inconclusive means small, poorly fitted or top-dose-only effect; inactive means no such curve, though single readings can be large or run the other way; also: 0% is about no effect; nearly all actives have a fitted effect of over 55% in size; growth read by luminescence after 48 h
Marburg entry inh: qHTS for inhibitors of binding or entry into cells for Marburg Virus; Marburg virus pseudotyped entry inhibition, cell reporter; control for the full effect not named in the record; about a third of the inactives were read at about 46 µM; Potency, µM (titrated, usually from 37.8 µM), inactives show at the highest dose activity change, negative = inhibition, actives largely listed as inhibitors; 1.8% of 300,000 active; AID 540276, 2011; active = well fitted inhibition curve with a large enough effect; inconclusive = small, poorly fitted or top-dose-only effect, or effect the other way; inactive = flat fitted curve, though single readings scatter; tested in HEK293 cells; about a fifth of its hits are not listed in these tables; also: % is scaled to controls: 0 for no effect and ±100 for the full control effect; luciferase read-out
Lassa entry inh: qHTS for Inhibitors of binding or entry into cells for Lassa Virus; Lassa virus pseudotype entry inhibition, cell reporter; control for the full effect not named in the record; Potency, µM (highest dose often 37.9 µM), for the others: at the highest dose activity change, negative = inhibition, most hits filed as inhibitors; 1.2% of 300,000 active; active means well fitted inhibition curve with a large enough effect; inconclusive means small, poorly fitted or top-dose-only effect, or effect the other way; inactive means flat fitted curve, though single readings scatter; tested in HEK293 cells; also: % is scaled to controls: 0 for no effect and ±100 for the full control effect; nearly all actives have a fitted effect of over 50% in size; luciferase read-out
2A StopGo: High Throughput Screening for Foot and Mouth Disease Virus Antivirals; human cells with a luciferase reporter of 2A StopGo recoding; control for the full effect not named in the record; Potency, µM (series often up to 57.9 µM), inactives show at the top dose signal change, negative = less light; 1.2% of 410,000 active; active = well fitted falling curve with a large enough effect; inconclusive = small, poorly fitted or top-dose-only effect; inactive = no such curve, though single readings can be large or run the other way; tested in HEK293T cells; also: % is scaled to controls: 0 for no effect and ±100 for the full control effect; nearly all actives have a fitted effect of over 45% in size; luciferase light after 4 h
Cruzain inh Det: qHTS Assay for Promiscuous and Specific Inhibitors of Cruzain (with detergent). Potency, µM, for the others: max response, negative = inhibition, usual class: inhibitors. AID 1478, 2009. purified cruzain, Z-FR-AMC fluorescence, 0.01% Triton. 0.43% of 200,000 active. Cruzipain (Trypanosoma cruzi), P25779;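 also: plate controls were neutral wells for no effect and buffer without enzyme for full effect; nearly all actives have a fitted effect of over 40% in size; top concentration of the series not given in the record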
Target sequence (P25779 123-467 limits assumed): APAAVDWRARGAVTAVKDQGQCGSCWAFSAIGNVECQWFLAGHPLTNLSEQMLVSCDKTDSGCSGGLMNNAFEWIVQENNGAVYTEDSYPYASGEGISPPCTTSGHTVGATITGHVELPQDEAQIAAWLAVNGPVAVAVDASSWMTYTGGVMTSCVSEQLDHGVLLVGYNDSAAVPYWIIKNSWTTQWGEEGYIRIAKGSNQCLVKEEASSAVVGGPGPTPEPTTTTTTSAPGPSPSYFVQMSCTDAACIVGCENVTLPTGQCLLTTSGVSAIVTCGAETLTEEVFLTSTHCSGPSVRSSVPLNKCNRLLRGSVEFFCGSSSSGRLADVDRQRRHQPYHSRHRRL
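Purified cruzain (1.5 nM final) was preincubated with compounds for 15 min at room temperature in 100 mM sodium acetate pH 5.5, 5 mM DTT, 0.01% Triton X-100. Reaction started with 2 uM Z-FR-AMC; AMC fluorescence change over 60 s gave activity.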
NS1 function inh: qHTS Assay for Inhibitors of Influenza NS1 Protein Function; S. cerevisiae slowed by influenza A NS1, growth recovery by OD600; Potency, µM (top dose mostly 46.1 µM), inactives show top-dose activity, positive = more growth; 0.4% of 270,000 active; active means well fitted rising curve with a large enough effect; inconclusive means small, poorly fitted or top-dose-only effect; inactive means no such curve, though single readings can be large or run the other way; also: nearly all actives have a fitted effect of over 50% in size
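OD600 was taken as the measure of yeast growth restored by compound in an NS1-expressing S. cerevisiae strain. Cells had been washed out of glucose medium and diluted 1:100 into galactose -URA medium, pH 6.0.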
Cruzain inh noDet: qHTS Assay for Promiscuous and Specific Inhibitors of Cruzain (without detergent); Cruzipain (Trypanosoma cruzi), P25779; purified cruzain, Z-FR-AMC fluorescence, no detergent; Potency, µM, for the others: max response, negative = inhibition, hits mostly inhibitors; AID 1476, 2009; 2.3% of 200,000 active;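 also: plate controls were enzyme without inhibitor for no effect and buffer without enzyme for full effect; nearly all actives have a fitted effect of over 40% in size; top concentration of the series not given in the record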
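Detergent-free condition (0.00005% Triton X-100) in acetate buffer pH 5.5 with DTT. 1.5 nM enzyme and compound were pre-mixed 15 min, then 2 uM Z-FR-AMC substrate added; reaction progress from fluorescence change between first and third reads (60 s).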
Active calls of the source: *; & = joins results of further samples; [ ] = dose if it differs, or a comment. Unless noted, calls follow the shape of the dose curve; as a rule, active = well fitted curve in the direction sought with a large enough effect; inconclusive = small, poorly fitted or top-dose-only effect, or another doubt; inactive = no such curve, though single readings can be large; an effect the other way counts as inactive or inconclusive. Potency is read from the fitted curve at half-maximal effect.

Screening O=C(O)c1ccc2c(c1)N(Cc1ccc(F)cc1)C(=O)c1ccccc1S2=O (stereo not drawn) returned Lassa entry inh 14%[46.1 µM], 2A StopGo inconclusive, Cruzain inh Det 0.5% and Cruzain inh noDet -5%.
Screening NC(=O)NC(Cc1ccccc1)C(=O)O (stereo not drawn) returned RE007 growth inh 8%, SARS PLP yeast 7%, Marburg entry inh 13%, Lassa entry inh -4%, 2A StopGo -1%, Cruzain inh Det -7.4%, NS1 function inh 5% and Cruzain inh noDet -10%.
O=C(CCN1C(=O)C2C3CCC(C3)C2C1=O)Nc1ccccc1Cl (stereo not drawn) was read as RE007 growth inh -14%, SARS PLP yeast 2%, Marburg entry inh 30%, Lassa entry inh 3%, 2A StopGo -17% and NS1 function inh 8%.
For Cc1cc(C)cc(N(C(=O)c2sc(C)nc2C)C(C(=O)NC(C)(C)C)c2ccncc2)c1 (stereo not drawn) the results were RE007 growth inh 8%, SARS PLP yeast 2%, Marburg entry inh inconclusive, Lassa entry inh -10%[46.1 µM] and 2A StopGo -19%.
For O=C(Nc1ccccc1F)Nc1ccccc1N1CCCCC1 the results were RE007 growth inh 5%, SARS PLP yeast -2%, Marburg entry inh -17%, Lassa entry inh inconclusive, 2A StopGo inconclusive and NS1 function inh -50%.
COc1ccc2cc(/C=C/C(=O)N3CCN(CC(=O)N4CCCCCC4)CC3)ccc2c1 was read as RE007 growth inh -2%, SARS PLP yeast 0%, Marburg entry inh inconclusive, Lassa entry inh inconclusive, 2A StopGo 1% and NS1 function inh -7%.
For O=C(Nc1ccc2nn(-c3ccc(F)cc3)nc2c1)c1cccnc1 the results were RE007 growth inh 6%, SARS PLP yeast -1%, Marburg entry inh inconclusive, Lassa entry inh inconclusive, 2A StopGo -14% and NS1 function inh 1%.
For O=C(O)CN(Cc1ccco1)S(=O)(=O)c1ccccc1 the results were RE007 growth inh 12%, SARS PLP yeast 2%, Marburg entry inh 7%, Lassa entry inh 5%, 2A StopGo 3%, Cruzain inh Det -3.8%, NS1 function inh 3% and Cruzain inh noDet 0%.
CCOc1ccc(N(CC(=O)NCC2CCCO2)C(=O)CCC(=O)Nc2nccs2)cc1 (stereo not drawn) was read as RE007 growth inh 9%, SARS PLP yeast 0%, Marburg entry inh 0%, Lassa entry inh inconclusive, 2A StopGo -14% and NS1 function inh 1%.
`COC(=O)c1ccc(OCC(=O)Nc2ccsc2C(=O)OC)cc1` gave RE007 growth inh 12%, SARS PLP yeast -1%, Marburg entry inh -2%[46.1 µM], 2A StopGo 0% and NS1 function inh -3%.
`COc1cccc(N=C2C(=O)N3CCCc4cccc2c43)c1` gave RE007 growth inh -12%, SARS PLP yeast -1%, Marburg entry inh inconclusive, Lassa entry inh 20%, 2A StopGo -23%, Cruzain inh Det -1.7%, NS1 function inh 7% and Cruzain inh noDet 22%.
O=C(O)c1cccc(NCc2ccncc2)c1 was read as SARS PLP yeast -1%, Marburg entry inh 1%, Cruzain inh Det 8.0%, NS1 function inh 0% and Cruzain inh noDet 1%.
For O=c1cnnc(SCCc2ccccc2)[nH]1 the results were RE007 growth inh 2%, SARS PLP yeast -2%, Marburg entry inh 5%, Lassa entry inh 0%, 2A StopGo 31%[activator], Cruzain inh Det -0.6%, NS1 function inh 1% and Cruzain inh noDet 1%.
Cc1oc(-c2ccc(Cl)cc2)nc1CS(=O)CC(=O)NC1CCCCCC1 (stereo not drawn) was read as RE007 growth inh -5%, SARS PLP yeast -4%, Marburg entry inh -3%[46.1 µM], Lassa entry inh 12%[46.1 µM], 2A StopGo 13% and NS1 function inh 15%.
Screening O=C(Nc1cccc(F)c1)C1C2C=CC3(CN(CCCN4CCOCC4)C(=O)C13)O2 (stereo not drawn) returned RE007 growth inh -7%, SARS PLP yeast 5%, 2A StopGo -10%, Cruzain inh Det 2.5%, NS1 function inh -2% and Cruzain inh noDet -6%.
For CCOC(=O)N1CCN(c2c(N3CCOCC3)c(=O)c2=O)CC1 the results were RE007 growth inh -3%, SARS PLP yeast 5%, 2A StopGo -8%, Cruzain inh Det 3.0%, NS1 function inh -3% and Cruzain inh noDet -5%.
For CCOC(=O)CSC1=Nc2ccccc2C2=NC(CCC(=O)NCc3ccccc3)C(=O)N12 (stereo not drawn) the results were Lassa entry inh 19%[46.1 µM], 2A StopGo -23%, Cruzain inh Det -2.7% and Cruzain inh noDet 0%.
`FC(F)(F)c1ccncc1-c1nnc(C2CCCCC2)o1` gave RE007 growth inh 18%, SARS PLP yeast 1%, Marburg entry inh 6%[46.1 µM], Lassa entry inh 14%, 2A StopGo 7% and NS1 function inh -6%.
`C=CCc1c(C)nc(-c2ccccc2)nc1N/N=C(\C)c1ccccc1` gave RE007 growth inh 10%, SARS PLP yeast -18%, Marburg entry inh 0%, Lassa entry inh 6%, 2A StopGo -4%, Cruzain inh Det -6.0%, NS1 function inh 13% and Cruzain inh noDet -1%.
Screening Cc1csc(=NC(=O)c2ccccc2)n1Cc1ccco1 returned RE007 growth inh -7%, SARS PLP yeast 0%, Marburg entry inh -6%, Lassa entry inh 6%, Cruzain inh Det -8.4%, NS1 function inh -14% and Cruzain inh noDet -8%.
O=C(CN1CCN(c2ccccc2O)CC1)Nc1cccnc1Cl was read as RE007 growth inh 41%, SARS PLP yeast 1%, Marburg entry inh 14%[46.1 µM], Lassa entry inh inconclusive and 2A StopGo -19%.
Screening Cc1ccc(S(=O)(=O)NC2=NCN(Cc3ccccc3)CN2)cc1 returned RE007 growth inh 6%, SARS PLP yeast 3%, Marburg entry inh 14%, Lassa entry inh 1%, 2A StopGo 19%, Cruzain inh Det 0.7%, NS1 function inh -1% and Cruzain inh noDet -4%.
`O=C(NOCc1ccccc1)c1ccc([N+](=O)[O-])cc1` gave RE007 growth inh -9%, SARS PLP yeast -10%, Marburg entry inh inconclusive, Lassa entry inh inconclusive and 2A StopGo -23%.
Screening O=C(Cn1nnc(-c2ccc3c(c2)OCO3)n1)Nc1ccccc1C(=O)O returned RE007 growth inh -14%, SARS PLP yeast 2%, Marburg entry inh inconclusive, Lassa entry inh 1%, 2A StopGo 35%[activator] and NS1 function inh 15%.
`C=CCNC(=S)N/N=C/c1cn(-c2ccccc2)nc1-c1ccc(OC)cc1` gave RE007 growth inh 21%, SARS PLP yeast 22%, Marburg entry inh 31%, Lassa entry inh 5%, 2A StopGo -19%, Cruzain inh Det -9.1%, NS1 function inh 6% and Cruzain inh noDet inconclusive.
CCNC(=O)c1cccc(S(=O)(=O)N2CCCCCC2)c1 was read as RE007 growth inh 10%, SARS PLP yeast 5%, Marburg entry inh -14%, Lassa entry inh inconclusive, 2A StopGo 2%, Cruzain inh Det -3.2%, NS1 function inh -9% and Cruzain inh noDet -8%.
Screening O=C(C[n+]1cccc2ccccc21)c1ccccc1 returned RE007 growth inh -11%, SARS PLP yeast 20%, Marburg entry inh inconclusive, Lassa entry inh 0%, 2A StopGo -4%, Cruzain inh Det -4.1%, NS1 function inh 23% and Cruzain inh noDet 14%.
Screening COC(=O)c1sccc1NC(=O)c1cc2c(s1)CCCC2 returned RE007 growth inh -5%, SARS PLP yeast 0%, Marburg entry inh 0%, Lassa entry inh 17%, 2A StopGo 13%, Cruzain inh Det -4.3%, NS1 function inh -42% and Cruzain inh noDet -13%.
`Cc1cc(C)c(NC(=O)COC(=O)Cc2cccs2)c(C)c1` gave RE007 growth inh 77%, SARS PLP yeast -1%, Marburg entry inh -14%[46.1 µM], Lassa entry inh inconclusive and 2A StopGo -6%.
CCN(CC)CCNC(C(=O)Nc1cc(C(F)(F)F)ccc1Cl)c1ccccc1 (stereo not drawn) was read as RE007 growth inh -25%, SARS PLP yeast -3%, Marburg entry inh inconclusive, Lassa entry inh -21%, 2A StopGo -14%, Cruzain inh Det -0.2%, NS1 function inh 6% and Cruzain inh noDet 7%.
Screening Cc1nn(Cc2cccc(C(=O)N3N=C(C(F)F)CC3(O)C(F)F)c2)c(C)c1[N+](=O)[O-] (stereo not drawn) returned RE007 growth inh 5%, SARS PLP yeast -1%, Marburg entry inh -5%, Lassa entry inh 0%, 2A StopGo inconclusive, Cruzain inh Det -3.8%, NS1 function inh 6% and Cruzain inh noDet -4%.
For Fc1cnc(N2CCOCC2)nc1NCc1ccccc1 the results were RE007 growth inh -6%, SARS PLP yeast 14%, Marburg entry inh -7%&-7%, Lassa entry inh -2%, 2A StopGo -1%, Cruzain inh Det 1.8%, NS1 function inh -8% and Cruzain inh noDet -14%.
For CCOc1ccc2nc(SCc3ccc(C(=O)OC)o3)[nH]c2c1 the results were RE007 growth inh -1%, SARS PLP yeast -8%, Marburg entry inh -3%, Lassa entry inh -2%, 2A StopGo 2%, Cruzain inh Det -1.5%, NS1 function inh -6% and Cruzain inh noDet -11%.
`COc1ccc2sc(N(Cc3cccnc3)C(=O)c3ccco3)nc2c1` gave Lassa entry inh inconclusive, 2A StopGo inconclusive, Cruzain inh Det -9.6% and Cruzain inh noDet 25%.
CCN(CC)S(=O)(=O)c1cc(Br)c(C)cc1OC was read as RE007 growth inh -22%, SARS PLP yeast -2%, Marburg entry inh inconclusive, Lassa entry inh -2%, 2A StopGo 13%, Cruzain inh Det -3.1%, NS1 function inh -11% and Cruzain inh noDet 1%.
`O=S(=O)(c1cccc2nsnc12)N1CCCCC1` gave RE007 growth inh -7%, SARS PLP yeast 4%, 2A StopGo -11% and NS1 function inh 18%.
Screening CCn1c(SCC(=O)Nc2cc(C)ccc2C)nnc1-c1cnccn1 returned RE007 growth inh 12%, SARS PLP yeast 6%, Marburg entry inh inconclusive, Lassa entry inh -24%, 2A StopGo 15%, Cruzain inh Det 2.3%, NS1 function inh -7% and Cruzain inh noDet -5%.
For O=C(NCc1cccc(Cl)c1)c1cc(=O)[nH]c2ccccc12 the results were RE007 growth inh 10%, SARS PLP yeast 0%, Marburg entry inh 8%[46.1 µM], Lassa entry inh inconclusive, 2A StopGo 3% and NS1 function inh 17%.
